Assay outcomes from PubChem BioAssay.
PrP 5UTR inh: inhibition of PrP 5' UTR reporter expression. cell-based PrP 5' UTR mRNA reporter, plate reader. inhibition, % (concentration not given with the values). actives 0.35% (n = 340,000);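 active means every replicate at 50% or more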;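 further: 0 = median of the neutral control wells; tested in H4 reporter cells; numbers are from one replicate; inactives centre near -14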
Sa RN4220 lethal: growth inhibition of S. aureus RN4220, primary screen, OD600. 16 h. actives 0.33% (n = 330,000). inhibition, % (test concentration not listed);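 active means z-score of -3 or lower and OD600 up to 0.18 on both plates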;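 further: plate controls were untreated cells for no effect and reference antibiotic for full effect; stock transfer was 100 nL into about 80 µL; one replicate is shown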
Mtb hypoxia rep: PubChem AID 1159583. fluorescence inhibition, % (test concentration not listed). M. tuberculosis hypoxia-regulated fluorescent reporter, fluorescence. actives 0.1% (n = 300,000);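 active means 35 to 45% if threefold the growth effect, above 45% if 1.5-fold the growth effect; inactive means the rest, general growth blockers included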;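 further: wells of about 50 µL received 100 nL stock; 0% = vehicle wells and 100% = reference inhibitor wells; whole bacteria with a GFP reporter of the hypoxia response; strong numbers were not always called active; many hits fall short of the cut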
BJeLR lethal: MLPCN primary cell-based screen for lethality selective to Ras in HRASV12 cells | inhibition, % (concentration not given with the values) | actives 0.17% (n = 300,000) | BJeLR (HRASV12) viability, CellTiter-Glo ATP luminescence, 48 h; reference of the scale not given here;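 active means replicate mean above 50%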;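 further: 50 nL library stock added to about 25 µL; numbers are from one replicate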
Sa ugtP lethal: growth inhibition of ugtP-null S. aureus, primary screen, RN4220 ugtP deletion, OD600 | 16 h; some inactives read as strong as hits | actives 0.54% (n = 330,000) | growth inhibition, % (concentration not given with the values);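 active means z-score under -3 and OD600 up to 0.15 on both plates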;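 further: plate controls were untreated wells for no effect and antibiotic for full effect; wells of about 80 µL received 100 nL stock; the first replicate is given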
Bead autofluor: flagged as autofluorescent in microsphere protease counterscreen. compound autofluorescence counterscreen, microsphere flow cytometry; active compounds read high. fluorescence intensity (no concentration beside the values). actives 3.1% (n = 360,000);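 active means at least 3 SD above the mean of all compounds, about 16000 in these data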;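 further: 100 nL of 1 mM stock went into each well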
Mtb hypoxia rep growth: further read-out of Mtb hypoxia rep, marked with its call; growth inhibition, %; measured here: M. tuberculosis growth (absorbance);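 0% = vehicle and 100% = reference antibiotic; read after six days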
Starred values were filed as active, the others as inactive; nt = no result given. An unsorted share of the library. Share with any hit: about 4%.

SMILES,PrP 5UTR inh,Sa RN4220 lethal,Mtb hypoxia rep,Mtb hypoxia rep growth,BJeLR lethal,Sa ugtP lethal,Bead autofluor
O=C(Nc1nc2n(n1)C(c1ccccc1)CC(c1ccc(Cl)cc1)N2)c1ccco1 (stereo unspecified),-12,0.7,nt,nt,0,1,2618
CCOC(=O)C1=NN(C(=O)Cc2ccccc2)C(O)(c2ccc(Cl)cc2)C1 (stereo unspecified),-9,9.6,0,2,2,-3,8842
Cc1cc(Cl)ccc1NC(=O)CSc1nnc(-c2ccncc2)n1Cc1ccco1,-21,3.6,6,11,3,1,9157
C=CCc1cccc2ccc(=O)oc12,-22,4.1,9,4,20,0,6128
CCOC(=O)c1[nH]c2ccc(OCC)cc2c1NC(=O)CN1CCC2(CC1)OCCO2,-7,0.7,nt,nt,4,-5,3968
Cc1ccc(COc2ccsc2C(=O)O)cc1,-24,6.1,11,10,nt,19,3614
COc1cc(/C=N/NC(=O)c2cc(C)oc2C)cc(OC)c1OC,-13,nt,nt,nt,7,nt,4310
CN1CCN(NC(=O)c2ccc(Br)s2)CC1,-5,3.1,13,13,-9,4,4412
COc1ccccc1CNC(=O)CN1C(=O)NC2(CCCc3ccccc32)C1=O (stereo unspecified),-15,0.1,7,11,nt,1,8565
Cc1ccc(NS(=O)(=O)c2ccc(C(=O)NCc3ccc(S(N)(=O)=O)cc3)cc2)cc1,-10,2.4,14,7,nt,-6,3912
COc1ccc(OCC(O)COc2ccc(C(=O)O)cc2)cc1 (stereo unspecified),-56,-1.7,-5,1,-10,2,8704
O=C(COC(=O)c1ccccn1)Nc1nccs1,-10,-2.0,-2,7,-4,-4,3739
O=c1cc(O)c2c(=O)[nH]c(=O)n(-c3ccccc3)c2[nH]1,-8,1.6,nt,nt,4,-1,4716
CC(c1ccco1)N(C(=O)C12CC3CC(CC(C)(C3)C1)C2)c1ccccn1 (stereo unspecified),-18,14,nt,nt,-1,-1,2221
COC(=O)COc1ccc(C(=O)OC)cc1,-28,5.6,0,2,6,1,3055
COC(=O)c1ccc(CON=C2CCCc3nonc32)cc1,nt,4.9,1,2,nt,18,nt
Cc1ccc(S(=O)(=O)N(C)C[C@@H]2Oc3c(NC(=O)C4CC4)cccc3C(=O)N([C@@H](C)CO)C[C@@H]2C)cc1,-13,2.0,-13,4,nt,2,3459
Cc1c(C(=O)NC(C)C)oc2c1-c1[nH]ncc1CC2,-26,nt,nt,nt,7,nt,2999
NC(=S)NN=C1CCOc2ccc(F)cc21,nt,4.4,nt,nt,nt,-1,nt
Cc1ccc(C2SCC(=O)Nc3c2c(=O)[nH]n3C2CCOC(C)(C)C2)cc1 (stereo unspecified),-53,-0.5,nt,nt,2,-12,4845
Nc1nc(NC(=O)/C=C/c2ccc(F)cc2)nn1-c1ccccc1,-9,12,17,9,9,-14,4359
CCOc1ccc(NC(=O)Nc2cc(C)ccc2F)cc1,-69,1.1,4,4,25,12,16132*
CCOc1ccc(CCNC(=O)COC(=O)Cn2nc(C)c([N+](=O)[O-])c2C)cc1OCC,-4,-0.9,2,3,-5,-1,6267
O=C(N/N=C/c1cc([N+](=O)[O-])ccc1O)c1cc(-c2ccccc2)nc2ccccc12,1,nt,nt,nt,8,nt,2477
CC1(C)NC(=O)N(CC(=O)O)C1=O,-15,0.8,16,8,-5,3,17429*
CCOC(=O)c1sc(NC(=O)C(C)C)c(C#N)c1C,-2,16,-4,-5,-1,2,2109
CCOc1ccc(C(=O)Nc2ccc(-c3nc4ccccc4[nH]3)cc2)cc1[N+](=O)[O-],2,5.6,13,4,-1,-3,2435
CCn1cnc2cc([N+](=O)[O-])ccc21,-17,6.5,3,-1,12,2,3237
O=C1CC(=O)N(CCc2ccc(F)cc2)C(=O)N1,-21,-1.0,nt,nt,12,1,2820
CCc1nnc(NC(=O)CC(C)c2ccccc2)s1 (stereo unspecified),-54,4.6,-8,-6,-7,3,4441
COCCCNC(=O)CCCn1c(=O)c2ccccc2n(CC(=O)Nc2c(C)cc(C)cc2C)c1=O,-4,1.0,-3,5,-4,0,3613
Cc1ccc(C(=O)OCC(=O)Nc2ccccc2Sc2ccccc2)cc1C,-13,5.6,13,6,-10,-8,10758
COc1ccc([N+](=O)[O-])cc1NC(=O)C(C)OC(=O)c1cccnc1Cl (stereo unspecified),-23,1.1,6,6,-3,4,4654
Nc1nc(SCC(=O)NNc2c(Cl)cc(Cl)cc2Cl)n[nH]1,-28,4.8,7,5,-3,4,2460
CNC(=S)NNC(=O)c1ccccc1Cl,nt,2.7,4,1,-7,3,4293
CN1C(C(=O)Nc2ccc(C(=O)O)cc2)=C(O)c2ccccc2S1(=O)=O,-20,23,8,1,nt,-4,nt
COc1ccc(C2NC(=S)NC(C)=C2C(=O)N2CCOCC2)cc1 (stereo unspecified),1,1.0,15,12,0,6,4378
O=C(COC(=O)/C=C/c1ccc(Cl)c(Cl)c1)NC1CCCC1,-10,1.3,13,1,nt,-3,8105
O=C(COC(=O)C1CC(O)CN1S(=O)(=O)c1ccccc1[N+](=O)[O-])Nc1ccc2ccccc2c1 (stereo unspecified),nt,4.4,-1,-1,nt,-2,nt
C/C(Cl)=C\CNC(C)c1ccccc1 (stereo unspecified),-13,-0.3,nt,nt,-10,-3,2835
O=C(COC(=O)COc1ccc(Cl)cc1Cl)NC1CCCCCC1,-18,6.2,1,0,nt,3,9289
Cc1cc(C(=O)OCC(=O)NC(C)C)c2ccccc2n1,-16,4.3,8,8,2,0,5280
CCNC(=O)NC(C(=O)OC)C12CC3CC(CC(C3)C1)C2 (stereo unspecified),-6,7.2,-6,11,7,8,4172
Oc1ccc(CN2CCCCC2)c2cccnc12,-21,4.9,13,5,-3,6,9628
COc1ccc2cc(C3(C)NC(=O)N(CC(=O)NCC(F)(F)F)C3=O)ccc2c1 (stereo unspecified),-22,-0.1,1,2,-7,5,3159
CN(C(=O)CSCC(=O)Nc1ccc(Cl)cc1)C1CCCCC1,-17,7.7,6,8,nt,15,3730
CN(c1ccc(F)cc1)S(=O)(=O)c1ccc(Cl)c(C(=O)OCC(=O)NCc2ccco2)c1,-16,3.1,6,-3,-7,9,4362
O=C1CCC/C1=c1\s/c(=C/c2cccnc2)c(=O)n1-c1ccccc1,7,2.5,6,11,nt,1,3971
S=c1oc(-c2ccncc2)nn1CCc1ccncc1,-18,7.2,8,8,9,-1,8826
O=C(O)c1ccc(C=NNc2nc3ccccc3[nH]2)cc1,nt,4.7,3,0,nt,1,nt

The results go on:
SMILES,PrP 5UTR inh,Sa RN4220 lethal,Mtb hypoxia rep,Mtb hypoxia rep growth,BJeLR lethal,Sa ugtP lethal,Bead autofluor
O=C(NCCc1cccc(F)c1)C1CCN(S(=O)(=O)c2ccccc2)CC1,-21,0.3,8,-2,8,4,3618
Cc1ccc(NS(=O)(=O)c2ccc(NN=Cc3ccncc3)c([N+](=O)[O-])c2)c(C)c1,nt,6.0,5,6,nt,-6,nt
CN(Cc1nc(-c2ccccc2)no1)C(=O)c1ccco1,-16,5.4,2,1,-1,5,3885
CCCc1cc(C(=O)Nc2cc(OC)ccc2OC)cs1,-27,17,-3,-10,-5,20,nt
Cc1ccc(N(CC(=O)NCc2ccc(F)cc2)S(=O)(=O)c2c(C)nn(C)c2C)cc1,-4,-2.9,9,15,3,4,5712
CC(C)Cc1ccc(/C=C/C(=O)N2CCCCC2)cc1,-81,2.6,7,20,6,6,4110
O=C(NN1C(=O)/C(=C/c2cccnc2)SC1=S)C(c1ccccc1)c1ccccc1,-22,10.0,12,9,-2,5,21106*
CCc1ccc(OCCCC(=O)Nc2ccc(S(=O)(=O)Nc3cc(C)nc(C)n3)cc2)cc1,-16,3.4,9,17,2,12,3770
CC=C(C)C(=O)Nc1cccc(C2=NOC3(C2)CC(C(N)=O)N(C(=O)Cc2ccc([N+](=O)[O-])cc2)C3)c1 (stereo unspecified),nt,2.9,22,7,nt,5,nt
CC(=O)Nc1cc(NC(C)=O)c(N=Nc2ccccc2)cc1C,-40,-0.3,-1,0,1,11,4954
COc1ccc(N2CCN(C(=O)c3ccc(NC(=O)C4=CSCCO4)cc3)CC2)cc1,-30,-1.8,9,-5,-4,10,6137
Cc1ccc(S(=O)(=O)N2C(c3ccc(C(C)C)cc3)CC=C(C(=O)O)C2c2ccccc2)cc1 (stereo unspecified),nt,16,9,1,nt,30,nt
O=C(NC(=S)NC1CCCc2ccccc21)c1ccc(F)cc1 (stereo unspecified),-16,2.2,3,3,-17,7,4928
Cc1ccc(-c2n[nH]c(=S)n2/N=C/c2cc3c(cc2[N+](=O)[O-])OCO3)cc1,-5,nt,nt,nt,5,nt,16089
CC(=O)Oc1ccccc1N1C(=O)c2ccc(C(=O)O)cc2C1=O,-11,-1.8,-3,11,6,0,5983
N#C/C(=C\c1cccs1)C(=O)c1ccccc1Cl,nt,6.1,9,9,63*,-3,nt
COC(=O)C1=CN(C(C)C)C=C(C(=O)OC)C1c1cc2c(cc1Br)OCO2,-14,3.8,1,5,3,6,5895
CCN(c1ccccc1)S(=O)(=O)c1ccc(C(=O)N(CCCN(C)C)c2nc3cc4c(cc3s2)OCO4)cc1,-7,-1.0,7,3,-7,2,5721
CC(C)C[C@@H](NC(=O)C1CCC(CNC(=O)[C@@H]2CCCN2C(=O)OC(C)(C)C)CC1)C(=O)O (stereo partly specified),-2,3.2,-2,-3,-1,9,2895
O=C(c1ccccc1)c1c(O)nc(-c2ccccc2)n(-c2ccccc2)c1=O,-22,20,8,1,-1,22,2509
Cc1ccccc1CN1C(=O)C(O)(CC(=O)c2ccncc2)c2ccccc21 (stereo unspecified),-4,5.1,4,11,6,-12,3096
CC(C)(C)c1nnc(NC(=O)CCn2cnc3ccccc3c2=O)s1,-37,-1.8,-5,8,11,-12,4344
COc1ccc(CCNc2oc(COc3ccc(F)cc3)nc2C#N)cc1,7,-8.2,nt,nt,nt,-16,4707
CN(CC(=O)Nc1cccc(F)c1)C(=O)c1cccc(S(=O)(=O)N2CCN(c3ccccc3)CC2)c1,-15,1.8,3,-6,4,1,4547
CC1=CC(c2ccccc2)n2nc(NC(=O)CCC(=O)O)nc2N1 (stereo unspecified),-1,4.2,15,2,-6,3,4871
COc1ccc(Cc2nnc(NC(=O)CS(=O)(=O)Cc3ccccc3)s2)cc1,-7,1.4,10,0,0,5,5432
Cc1ccc(-c2[nH]c(=O)n3ccncc23)s1,-26,3.4,6,2,-4,0,3675

Some of these compounds in order of molecular weight, low to high:
SMILES,PrP 5UTR inh,Sa RN4220 lethal,Mtb hypoxia rep,Mtb hypoxia rep growth,BJeLR lethal,Sa ugtP lethal,Bead autofluor
Cc1ccc(-c2[nH]c(=O)n3ccncc23)s1,-26,3.4,6,2,-4,0,3675
CC(=O)Oc1ccccc1N1C(=O)c2ccc(C(=O)O)cc2C1=O,-11,-1.8,-3,11,6,0,5983
CC1=CC(c2ccccc2)n2nc(NC(=O)CCC(=O)O)nc2N1 (stereo unspecified),-1,4.2,15,2,-6,3,4871
COc1ccc(CCNc2oc(COc3ccc(F)cc3)nc2C#N)cc1,7,-8.2,nt,nt,nt,-16,4707
O=C(c1ccccc1)c1c(O)nc(-c2ccccc2)n(-c2ccccc2)c1=O,-22,20,8,1,-1,22,2509
Cc1ccccc1CN1C(=O)C(O)(CC(=O)c2ccncc2)c2ccccc21 (stereo unspecified),-4,5.1,4,11,6,-12,3096
COc1ccc(Cc2nnc(NC(=O)CS(=O)(=O)Cc3ccccc3)s2)cc1,-7,1.4,10,0,0,5,5432
COC(=O)C1=CN(C(C)C)C=C(C(=O)OC)C1c1cc2c(cc1Br)OCO2,-14,3.8,1,5,3,6,5895
CC(C)C[C@@H](NC(=O)C1CCC(CNC(=O)[C@@H]2CCCN2C(=O)OC(C)(C)C)CC1)C(=O)O (stereo partly specified),-2,3.2,-2,-3,-1,9,2895
CN(CC(=O)Nc1cccc(F)c1)C(=O)c1cccc(S(=O)(=O)N2CCN(c3ccccc3)CC2)c1,-15,1.8,3,-6,4,1,4547
